Bioassay records deposited in PubChem by several laboratories.
CD11b adhes inh: inhibitors of CD11b/CD18 adhesion to fibrinogen, primary screen, K562 cells, luminescence; ATPlite luminescence; Mn2+ added to activate the integrin; inhibition, % at 10 µM; 93,000 tested, 0.54% active; AID 1497, 2009;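 active = primary inhibition of 50% or more at 10 µM, then 40% or more on retest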; note: some results filed as inactive read as strong as hits
CD11b adhes enh: enhancers of CD11b/CD18 adhesion to fibrinogen, primary screen, K562 cells, luminescence. Integrin beta-2 (Homo sapiens) + Integrin alpha-M (Homo sapiens), P05107+P11215. ATPlite luminescence. activation, % at 10 µM. 93,000 tested, 0.07% active. AID 1499, 2009;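 active = 10 µM primary screen giving 50% or more activity, confirmed by 40% or more on retest at that dose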; note: strong numbers were not always called active; reference of the scale not given here
Smad3 FoxH1 inh: Smad3/FoxH1 peptide binding inhibitors, primary screen, biochemical, TR-FRET. Mothers against decapentaplegic homolog 3 (Homo sapiens), P84022. TR-FRET Smad3/Dy647-FoxH1 peptide binding, europium anti-His. inhibition, % at 25 µM. 88,000 tested, 0.29% active. AID 630, 2007;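 active = compounds that reduce the energy-transfer binding signal between the protein and its labelled peptide by more than half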;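 note: 0% = Smad3 plus labelled peptide maximal FRET and 100% = peptide-only background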
Target sequence (P84022 whole entry, looked up): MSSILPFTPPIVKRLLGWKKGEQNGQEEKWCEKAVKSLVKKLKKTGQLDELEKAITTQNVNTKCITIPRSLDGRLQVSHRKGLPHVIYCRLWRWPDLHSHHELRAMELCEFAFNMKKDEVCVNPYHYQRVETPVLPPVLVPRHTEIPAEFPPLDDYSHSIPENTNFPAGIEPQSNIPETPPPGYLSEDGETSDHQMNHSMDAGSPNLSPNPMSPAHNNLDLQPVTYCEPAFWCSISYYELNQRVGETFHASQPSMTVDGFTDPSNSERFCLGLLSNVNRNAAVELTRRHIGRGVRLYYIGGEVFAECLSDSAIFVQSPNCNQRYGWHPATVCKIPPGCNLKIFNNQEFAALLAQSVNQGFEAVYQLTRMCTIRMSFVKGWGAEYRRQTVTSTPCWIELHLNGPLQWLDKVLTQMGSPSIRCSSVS
sEH activator: soluble epoxide hydrolase activators, primary screen, biochemical, human sEH; activation, % at 2 µM; 91,000 tested, 0.04% active; AID 717, 2007; purified human sEH enzymatic activity, activator screen; Bifunctional epoxide hydrolase 2 (Homo sapiens), P34913; in the data active = activation above about 37%; note: values of inactives mirror those of a sister screen read the other way
sEH inhibitor: soluble epoxide hydrolase inhibitors, primary screen, biochemical, human sEH | recombinant human sEH enzymatic activity assay | inhibition, % at 2 µM | 91,000 tested, 0.34% active; in the data active = inhibition above about 80%; note: values of inactives mirror those of a sister screen read the other way; many of its hits are not listed in these tables
Starred values were filed as active, the others as inactive; · = no result given. A portion of the library (hit frequency here may not be typical).

Start of the data: the first two entries, to show the layout:
SMILES	CD11b adhes inh	CD11b adhes enh	Smad3 FoxH1 inh	sEH activator	sEH inhibitor
Cc1nc(=O)c(-c2ccccc2)c(C)n1-c1ccc(O)c(C(=O)O)c1	-3	-1	-2	·	·
CC(C(=O)O)c1cccc(C(=O)c2ccccc2)c1 (centres undefined)	-26	-4	9	·	·

All compounds of this part (from the top)
SMILES	CD11b adhes inh	CD11b adhes enh	Smad3 FoxH1 inh	sEH activator	sEH inhibitor
Cc1nc(=O)c(-c2ccccc2)c(C)n1-c1ccc(O)c(C(=O)O)c1	-3	-1	-2	·	·
CC(C(=O)O)c1cccc(C(=O)c2ccccc2)c1 (centres undefined)	-26	-4	9	·	·
COc1ccc(/C(N)=N/OC(=O)CSc2ccccc2)cc1	6	-3	6	5	-6
O=C(CCCN1CCC(O)(c2ccc(Cl)cc2)CC1)c1ccc(F)cc1	·	·	4	·	·
O=C(COc1ccc(Cl)cc1Cl)Nc1noc2ccccc12	·	·	-4	-48	48
O=C(O)Cn1nc(C(F)(F)F)c2c1CCCCC2	8	0	3	13	-13
COc1cc(S(=O)(=O)n2c(C)nc3ccccc32)ccc1F	8	2	1	-1	2
N[C@@H](Cc1cc(I)c(Oc2ccc(O)c(I)c2)c(I)c1)C(=O)O	·	·	1	·	·
CCCCc1oc2ccccc2c1C(=O)c1cc(I)c(OCCN(CC)CC)c(I)c1	·	·	-5	·	·
Cc1sc2ncnc(SCC(=O)N3CCN(C(=O)c4ccco4)CC3)c2c1C	16	-2	-2	·	·
COC(=O)Nc1sc(C)nc1-c1ccccc1	-8	0	5	0	0

Part of the list above, field by field:
> COc1ccc(/C(N)=N/OC(=O)CSc2ccccc2)cc1
  CD11b adhes inh: 6 | CD11b adhes enh: -3 | Smad3 FoxH1 inh: 6 | sEH activator: 5 | sEH inhibitor: -6
> O=C(CCCN1CCC(O)(c2ccc(Cl)cc2)CC1)c1ccc(F)cc1
  CD11b adhes inh: · | CD11b adhes enh: · | Smad3 FoxH1 inh: 4 | sEH activator: · | sEH inhibitor: ·
> Cc1nc(=O)c(-c2ccccc2)c(C)n1-c1ccc(O)c(C(=O)O)c1
  CD11b adhes inh: -3 | CD11b adhes enh: -1 | Smad3 FoxH1 inh: -2 | sEH activator: · | sEH inhibitor: ·
> COC(=O)Nc1sc(C)nc1-c1ccccc1
  CD11b adhes inh: -8 | CD11b adhes enh: 0 | Smad3 FoxH1 inh: 5 | sEH activator: 0 | sEH inhibitor: 0
